Assay outcomes as filed in PubChem.
SmPrx2 inh: blocks S. mansoni peroxiredoxin 2 enzymatic activity; Potency, µM; AID 448; S. mansoni Prx2 activity coupled to TGR/GSH (TGR is thioredoxin glutathione reductase), NADPH fluorescence loss, qHTS; some inactives read as strong as hits; 65,000 tested, 0.07% active; active means full or partial inhibition curve with a strong effect at the top dose; inconclusive means weaker partial or single-point curve; inactive means no accepted curve; note: series up to 57 µM; many of its hits are not listed in these tables
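Prx2 activity was followed as the loss of NADPH fluorescence (ex 365/em 450 nm), read every 30 sec for 8 min after H2O2 start. The enzyme mix (50 nM Prx2, 25 nM TGR, GSH, NADPH; pH 7.4 phosphate buffer) was incubated with compound for 15 min at room temperature first.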
Anthrax LT inh: blocks cellular internalization of anthrax lethal toxin; AID 912; Cells, anthrax lethal toxin internalization, FRET ratio (460/530); 70,000 tested, 0.67% active; Potency, µM (highest dose often 40 µM), for inactives: at the top dose activity change, negative = inhibition, actives largely listed as inhibitors; active = well fitted falling ratio curve with the 530 nm signal flat; inconclusive = other ratio curves, or a change in one channel alone; inactive = flat curves in the ratio and both channels; the % refers to the ratio; note: % is set by controls: 0 for no effect and ±100 for the full control effect; nearly all actives have a fitted effect of over 50% in size; tested in ME-180 cells; beta-lactamase reporter
An asterisk follows results filed as active; ? = inconclusive; / = not tested or not shown; [ ] = another dose, or the depositor's remark. Potency is the fitted concentration of half-maximal effect.

SMILES | SmPrx2 inh | Anthrax LT inh
COC(=O)NC(c1ccc2ccccc2c1)C(C(C)=O)C(=O)OC (stereo not given) | / | -6%[8 µM]
O=C(CSc1nc2ccccc2c(=O)n1Cc1ccco1)N1CCN(c2ccccc2)CC1 | >57 | ?
Cc1ccc(N=Nc2ccc(N)cc2C)c(S(N)(=O)=O)c1 | >57 | 0%[8 µM]
CC(C)NC(=O)N1CCCC2(CCN(C(=O)Oc3ccccc3)CC2)C1 | >57 | -2%
COc1ccccc1NC(=O)Cn1c(=O)oc2ccccc21 | >57 | -2%
O=C(O)C1C(C(=O)O)C2(Cl)C(Cl)=C(Cl)C1(Cl)C2(Cl)Cl (stereo not given) | / | 0%
CC(C)(C)c1cc(NS(=O)(=O)c2ccc3c(c2)OCCO3)on1 | >57 | 0%
CCC(NC(=O)c1ccccc1NC(=O)c1ccccc1)C(=O)O (stereo not given) | >57 | 0%
CC(=O)c1cccc(NC(=O)N2C3CCC2CC(O)(c2cccnc2)C3)c1 (stereo not given) | >57 | -9%
COc1ccc(CNC(=O)C(C)N(Cc2ccco2)C(=O)c2snc(C(N)=O)c2N)cc1 (stereo not given) | >57 | -8%
Cc1c(C(=O)NCc2ccccn2)oc2ccc(S(=O)(=O)N3CCOCC3)cc12 | >57 | -9%
Cn1c2ccc(F)cc2c2ncn(CCN3CCOCC3)c(=O)c21 | >57 | -20%

Some of the entries so far, with two lines to a compound:
Fields – SmPrx2 inh	Anthrax LT inh
CCC(NC(=O)c1ccccc1NC(=O)c1ccccc1)C(=O)O (stereo not given)
→ >57	0%
CC(=O)c1cccc(NC(=O)N2C3CCC2CC(O)(c2cccnc2)C3)c1 (stereo not given)
→ >57	-9%
COc1ccc(CNC(=O)C(C)N(Cc2ccco2)C(=O)c2snc(C(N)=O)c2N)cc1 (stereo not given)
→ >57	-8%
Cc1c(C(=O)NCc2ccccn2)oc2ccc(S(=O)(=O)N3CCOCC3)cc12
→ >57	-9%
Cn1c2ccc(F)cc2c2ncn(CCN3CCOCC3)c(=O)c21
→ >57	-20%

Going on with the list.
SMILES | SmPrx2 inh | Anthrax LT inh
Cc1cccc(-n2ncc(C#N)c2N)c1 | >57 | -3%
C=CCn1c(SCCN2CCOCC2)nc2c1c(=O)[nH]c(=O)n2C | >57 | -1%
C[C@H](CCC(=O)O)[C@H]1CC[C@@H]2[C@@H]3CC[C@H]4C[C@@H](O)CC[C@@]4(C)[C@@H]3C[C@H](O)[C@@]21C | >57 | -10%[8 µM]
O=S(=O)(NC1CC1)c1ccc(S(=O)(=O)N2CCCc3ccccc32)cc1 | >57 | -2%
C=Cn1ccnc1P(=S)(c1cc(N(CC)CC)ns1)c1nccn1C=C | >57 | -12%
CC(=N/O)/C(=N\O)c1ccc(C)o1 | >57 | -6%
Cc1cc(C(=O)OCCO)c(C#N)c(N)n1 | >57 | /
COc1cccc(NC(=O)c2ccc(S(=O)(=O)N3CCCCC3)cc2)c1 | / | ?
Cc1nc(C)c2c(=O)cc(-c3ccccc3)[nH]c2n1 | >57 | -9%
O=C(CSc1nnc(CNC(=O)c2c(F)cccc2Cl)o1)Nc1ccc2c(c1)OCCO2 | >57 | 1%
CCNC(=O)[C@H]1O[C@H](n2cnc3c(N)nc(NCCc4ccc(CCC(=O)O)cc4)nc32)[C@@H](O)[C@@H]1O | >57 | -10%
CCOc1ccc(CNC(=O)CCn2c(=O)oc3ccccc32)cc1 | >57 | -20%
COc1ccc(-c2cc3nc4c(c(=O)n3[nH]2)CCC4)cc1 | >57 | 5%
CCOC(=O)c1c(C)nc(-c2ccccc2)nc1NC(=O)CC | >57 | 3%
CC1(C)CC(=O)C2=C(C1)OC(N)=C(C#N)C2c1ccccc1 (stereo not given) | / | -7%
c1ccc(OCCCn2nnc(-c3ccncc3)n2)cc1 | >57 | ?
N#Cc1nc(-c2cccs2)oc1NCCCN1CCOCC1 | / | 1%
CC(C)[N+](=O)[O-] | / | 2%
CCc1cc2c(=O)c(-c3ccon3)c(N)oc2cc1OC | >57 | -3%
Cc1cc2c3c(c1C)C1(C(=O)N3C(C)(C)CC2C)C(C#N)=C(N)Oc2n[nH]c(C)c21 (stereo not given) | >57 | -24%
Cc1cc(NC(=O)COC(=O)c2n[nH]c3ccccc23)no1 | >57 | 3%
COc1ccc(N(CC(=O)NCc2ccccc2)S(=O)(=O)c2c(C)noc2C)cc1 | >57 | -18%
Cc1nc(SCC(=O)Nc2c(C)n(C)n(-c3ccccc3)c2=O)[nH]c(=O)c1Cc1ccccc1 | >57 | -8%
O=C(CCC1CCCCC1)NCc1ccncc1 | >57 | -16%
Fc1ccc(Cc2nnc(-c3cccs3)o2)cc1 | >57 | -27%
O=C(COC(=O)Cc1cn2ccsc2n1)NC12CC3CC(CC(C3)C1)C2 | >57 | 5%
CC1CCC(C(=O)NC(C(=O)N2CCC3(CC2)OCCO3)C(C)C)CC1 (stereo not given) | >57 | -2%
O=C(COC(=O)C1c2ccccc2Oc2ccccc21)Nc1ccc2c(c1)OCO2 | >57 | -11%
Cc1ccc(N=C(c2cccs2)N2CCOCC2)cc1 | >57 | -3%
CS(=O)(=O)N1CCC2(CCN(Cc3nccs3)CC2)CC1 | >57 | -4%
CC(=O)c1cccc(NC(=O)N[C@@H](CC(C)C)C(=O)O)c1 | >57 | 7%
CCN1CCN(/C=N/c2nc(C)cs2)CC1 | >57 | 1%
CCOC(=O)c1sc(=S)n2c1[nH]c(=O)c1ccc(C(=O)OC)cc12 | >57 | -6%
O=c1c(-c2ccccc2)nc2cnc(N3CCOCC3)nc2n1C[C@H]1CCCO1 | >11 | ?
COc1ccc(OCC(=O)Nc2ccccc2OC(F)F)cc1 | >57 | 11%
CC1(C)CC(=O)C=C(NCc2cccs2)C1 | >57 | -13%
CCCOC(=O)c1ccc(-n2nnnc2SCC(=O)N2CCCCC2)cc1 | / | -8%
COCCn1c(SCC(=O)c2[nH]c(C)c(C(C)=O)c2C)nc2ccccc21 | >57 | -9%
CC(C)CCn1c(N2CCC(C(N)=O)CC2)nc2c1c(=O)[nH]c(=O)n2C | >57 | -8%
CCNCCNC(=O)c1c(O)c2cccc3c2n(c1=O)CCC3 | >57 | -6%
Cc1cc(C(=O)OCC(=O)N2CCN(C(=O)c3ccco3)CC2)c(C)n1-c1ccc(F)cc1 | >57 | ?
O=C(Cn1nc(-c2ccccc2)c2ccccc2c1=O)Nc1ccccn1 | / | -14%
Cc1cc(C)nc(N2CCCC(C(=O)Nc3ccc4c(c3)OCO4)C2)n1 (stereo not given) | >57 | -10%
CCOC(=O)N1CCC(NC(=O)C2CCN(c3ccc(N4CCOCC4)nn3)CC2)CC1 | >57 | -3%
O=C(O)CCc1ccc(-c2ccc(F)cc2)n1Cc1ccco1 | >57 | -27%
CCN(CC)C(=O)CSc1nc2ccccc2c(=O)n1-c1cccc(OC)c1 | >57 | 23%
O=C(NCc1ccco1)c1cc2n(n1)C(C(F)(F)F)CC(c1ccc(Cl)c(Cl)c1)N2 (stereo not given) | >57 | ?
Cc1nccn1CCC(=O)O | >57 | 7%

Reprinted from above, two compounds:
SMILES | SmPrx2 inh | Anthrax LT inh
COC(=O)NC(c1ccc2ccccc2c1)C(C(C)=O)C(=O)OC (stereo not given) | / | -6%[8 µM]
O=C(CSc1nc2ccccc2c(=O)n1Cc1ccco1)N1CCN(c2ccccc2)CC1 | >57 | ?

Continuation:
SMILES | SmPrx2 inh | Anthrax LT inh
O=C1CS/C(=C/C(=O)c2ccccc2)N1 | >57 | 0%
Cc1cc(NC(=O)CSc2nc(-c3ccccc3)c(C#N)c(=O)[nH]2)no1 | >57 | ?
Cc1[nH]c(C)c2c(=O)n(-c3ccccc3)ncc12 | >57 | -8%
CCOC(=O)C(C)(C)Sc1nc2c(cnn2-c2ccc(C)cc2)c(=O)[nH]1 | / | 9%
CCc1nnc(NC(=O)c2ccc(S(=O)(=O)N3CCOCC3)cc2)s1 | >57 | -2%
CNc1nc(-c2ccc(C(=O)N(C)C)cc2)nc2ccccc12 | >57 | -13%
CC(C)(C)NC(=O)c1ccc2c(c1)C(=O)N(C1CCCCC1)C2=O | >57 | -1%
CN(C)c1ccc(NC(=O)Nc2cccc(Cl)c2)cc1 | >57 | -18%
CCC1CCCCN1C(=O)CSc1nnc(-c2ccco2)o1 (stereo not given) | >57 | 0%
CCC(O)C(C)(C)C (stereo not given) | / | ?
Cc1cc(Nc2ccc(F)cc2)n2nc(C)nc2n1 | >57 | -4%
O=C(CSc1nnnn1-c1cccc2ccccc12)N1CCOCC1 | >57 | 5%
Cc1cc2oc(=O)cc(CN3CCCCC3)c2cc1C(C)C | >57 | -15%
COc1ccc(CNC(=O)c2cccc3c2C(=O)N(Cc2cccnc2)C3)cc1 | >57 | 2%
COc1cc(C(=O)CSc2nncn2C)cc(OC)c1OC | >57 | ?
Cc1ccc(-n2c3c(cc(C(=O)N4CCN(C)CC4)c2=O)C(=O)CC(C)(C)C3)cc1 | >57 | ?
CCCCOC(=O)n1c(=O)oc2ccccc21 | >57 | 4%
CCOc1ccccc1Nc1nc(N)nc(CSc2nccc(C)n2)n1 | >57 | 4%
O=C(O)CCC(O)=C1S(=O)(=O)OCCOS1(=O)=O | >57 | -1%[8 µM]
CCOc1cc(CN2CCCCC2)ccc1OC | >57 | -20%
Cc1nc2ccc(S(=O)(=O)NC(C(=O)N3CCC(C)CC3)C(C)C)cc2s1 (stereo not given) | >57 | -11%
CCOC(=O)Cn1c(=O)oc2cc(S(=O)(=O)NCC3CCCO3)ccc21 (stereo not given) | >57 | 2%
Cn1c(=O)[nH]c(=O)c2c1nc(Br)n2CCCSc1nc2ccccc2o1 | >57 | ?
Cc1ccc(-c2nc(C#N)c(NCCN3CCCCC3)o2)cc1 | >57 | -5%
Oc1ccc(Br)cc1/C=N/n1cnc2ccccc21 | >57 | -31%
NS(=O)(=O)c1ccc(-c2ccc([As](=O)(O)O)cc2)cc1 | >57 | 3%[8 µM]
Cc1cc(C)n(-c2ccc(F)cc2)c(=O)c1C(=O)O | >57 | 5%
CCCCCCCC/C=C\CCCCCCCC(=O)NCCc1ccc(O)c(O)c1 | >57 | ?
CCOC(=O)N1CCC(NC(=O)Cn2ncc3c2-c2cc(C)ccc2OC3)CC1 | >57 | 7%
O=C(O)Cn1ncc2c1-c1ccoc1CC2 | >57 | -10%
CC(=O)C(Sc1ccc2nnc(-c3ccc(F)cc3)n2n1)C(C)=O | >57 | 17%
Nc1ncnc2c1ncn2[C@@H]1O[C@@H](C(=O)NC2CC2)[C@H](O)[C@@H]1O | >57 | 10%
Cc1cc(-c2ccccc2)nc(SCc2ccc(C(=O)O)o2)n1 | >57 | 6%
COc1ccc(OC)c(NC(=O)C2CCCNC2=O)c1 (stereo not given) | / | -7%
Clc1ccc(-c2nn3cnnc3s2)c(Cl)c1 | >57 | ?
CCCN1C(=O)c2ccc(C(=O)NC3CCCCC3)cc2C1=O | >57 | 4%
CNC(=O)CCc1nc(-c2ccc(C(C)(C)C)cc2)no1 | >57 | -4%
CCOC(=O)/C=C1\CC(=O)Nc2cc(C)c(C)cc2N1 | >57 | -8%
Cc1cccc2nc(CSc3nncn3-c3ccccc3)cn12 | >57 | -8%
COc1ccc(NC(=O)C2CCN(c3nc(C)nc4c3CCC4)CC2)cc1 | >57 | -8%
N=C(N)c1ccc(N)cc1 | >57 | -4%
CCC(C)[C@H](NC(=O)NCc1cccs1)C(=O)OC (stereo not given in full) | >57 | 9%
Cc1cc(N2C(=O)C3CC=CCC3C2=O)cc(C)c1Br (stereo not given) | / | -10%
Cc1ccc(C2(c3ccc(C)cc3)NC(=O)N(Cc3c(C)noc3C)C2=O)cc1 | >57 | 1%
CS(=O)(=O)N(CC(=O)NCc1ccco1)c1cc(C(F)(F)F)ccc1Cl | >57 | -14%
O=C(Nc1nccs1)C1CCCN1S(=O)(=O)c1cccc2cccnc12 (stereo not given) | >57 | -11%
c1ccc(Oc2nc(Oc3ccccc3)nc(N3CCOCC3)n2)cc1 | / | ?
Cc1ccc2c(c1)nnn2C1CCN(CC(=O)c2ccc(Cl)cc2)CC1 | >57 | -2%

Three entries from above, ordered by molar mass, falling:
SMILES | SmPrx2 inh | Anthrax LT inh
Cc1ccc(C2(c3ccc(C)cc3)NC(=O)N(Cc3c(C)noc3C)C2=O)cc1 | >57 | 1%
c1ccc(Oc2nc(Oc3ccccc3)nc(N3CCOCC3)n2)cc1 | / | ?
Cc1cc(N2C(=O)C3CC=CCC3C2=O)cc(C)c1Br (stereo not given) | / | -10%

(listing goes on)
SMILES | SmPrx2 inh | Anthrax LT inh
COc1ccccc1NC(=O)Cn1cnc2c(oc3ccccc32)c1=O | >57 | 6%
O=C(Cn1nnc(-c2ccncc2)n1)NCCc1ccccc1 | >57 | 5%
Cc1cccc(N2C(N)=NC(N)=NC23CCCCC3)c1 | >57 | ?
O=C(O)c1ccc(N2C(=O)C3ON(c4ccccc4)C(c4ccccc4F)C3C2=O)cc1 (stereo not given) | >57 | 1%
CN1CCN(C(=O)c2nc3ccc(Cl)cc3[nH]2)CC1 | / | 7%
Cc1ccc(OCC(=O)NCCN2CCN(C(=O)COc3ccc(C)cc3)CC2)cc1 | >57 | 2%
COC(=O)c1ccc2c(c1)C(=O)N(C1CCCCC1)C2=O | >57 | -10%
COC(=O)Cn1cc(C(=O)C2CC2)c2ccccc21 | >57 | 3%
C=CCNc1ncnc2ccccc12 | >57 | -4%
CC1=C(C(=O)N2CCCCC2)C(c2cccs2)NC(=O)N1 (stereo not given) | >57 | -3%
COc1ccc(N2CCN(C(=O)c3ccc(N4C(=O)NC5CC4(C)Oc4ccccc45)cc3)CC2)cc1 (stereo not given) | >57 | -3%

Only part of the results is shown; rates above refer to the full screens.
